# Screens: PubChem, Emory University Molecular Libraries Screening Center
# Measles inh: inhibitors of measles virus growth in infected cells | infected Vero cells, GFP fluorescence, 64 h; active compounds read low | z-score (concentration not given with the values) | hit rate 0.1% among 33,000 | AID 745;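 active means z-score under -3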;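 further: score is relative to mean and SD of the compound wells of a plate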
# * = called active by the depositor. These rows are one share of the data, so the mix of outcomes need not match the whole.
compound,Measles inh
COc1cc(OC)c(NC(=O)Cn2cnc3sc(C)c(S(=O)(=O)N4CCC(C)CC4)c3c2=O)cc1Cl,0
CCOC(=O)C1=C(C)Nc2nc(SCc3ccccc3C)nn2C1c1ccc(Br)cc1 (centres undefined),-0.55
Cc1ccccc1NC(=O)c1sc2nc3c(cc2c1N)CCCC3,0.36
COc1cccc(C2Oc3ccccc3C3CC(c4cccs4)=NN32)c1OCC(=O)O (centres undefined),1.4
COc1ccc(C2Nc3ccc4ncccc4c3C3=C2C(=O)CCC3)cc1OC (centres undefined),-0.06
c1ccc(N=c2oc3ccccc3cc2-c2nc3ccccc3[nH]2)cc1,2.4
COc1ccc(C2(CC#N)CCOC(C)(C)C2)cc1 (centres undefined),-0.08
Cc1nonc1NC(=O)CN1C(=O)c2ccccc2C1=O,-0.02
CC1(C)CC(=O)C2=C(C1)Nc1ccccc1N(C(=O)Cc1ccc(Cl)cc1)C2c1cccnc1 (centres undefined),0.14
CCN1CCN(C(=O)C2CCC(=O)N(c3cc(OC)c(OC)c(OC)c3)C2c2ccc(OC)cc2)CC1 (centres undefined),0.96

# Overlap with the part before: 4 compounds, then new ones.
compound,Measles inh
COc1ccc(C2(CC#N)CCOC(C)(C)C2)cc1 (centres undefined),-0.08
Cc1nonc1NC(=O)CN1C(=O)c2ccccc2C1=O,-0.02
CC1(C)CC(=O)C2=C(C1)Nc1ccccc1N(C(=O)Cc1ccc(Cl)cc1)C2c1cccnc1 (centres undefined),0.14
CCN1CCN(C(=O)C2CCC(=O)N(c3cc(OC)c(OC)c(OC)c3)C2c2ccc(OC)cc2)CC1 (centres undefined),0.96
Cc1nn(C(=O)c2cccnc2)c(-c2ccccc2)c1Sc1ccccc1,-0.54
Cc1noc(C)c1S(=O)(=O)N1CCC(C(=O)N2CCN(c3ccccc3F)CC2)CC1,0.42
COc1ccc(S(=O)(=O)NCc2ccc(C(=O)NCc3cccs3)cc2)cc1,-0.51
CCOc1ccc(S(=O)(=O)N(CC(=O)Nc2c(C)cccc2C)c2ccccc2)cc1,1.8
CCCOc1ccc(C(=O)NCCc2c[nH]c3ccccc23)cc1,0.01
Cc1nc(-c2ccc(NS(=O)(=O)c3ccc(C)c([N+](=O)[O-])c3)cc2)cs1,-0.91
COc1cc2c(cc1NC(=O)COc1ccc(C)cc1Br)oc1ccccc12,-0.74
O=C(O)CCCN(Cc1ccc(Cl)cc1)S(=O)(=O)c1ccc(Cl)cc1,-0.23
O=C(OCc1ccccc1)c1cccc(N2C(=O)C3C4CCC(C4)C3C2=O)c1 (centres undefined),0.3
CC1CCC(NC(=O)c2cc(=O)[nH]c3ccc(S(=O)(=O)N4CCCCCC4)cc23)CC1 (centres undefined),-0.57
O=C(Oc1ccccc1C(=S)N1CCOCC1)c1ccc([N+](=O)[O-])cc1,-0.02
Cc1cccc2c(C(=O)N3CCOCC3)cc(-c3ccccc3)nc12,-0.19
CCC1(C)Cc2c(sc3nc(SCC(=O)c4ccccc4)nc(N)c23)CO1 (centres undefined),-0.41
CN(C)c1cc(Nc2ccccc2)c2c3c(onc13)-c1ccccc1C2=O,0.17
Cc1c(Cl)c(C)c([N+](=O)[O-])c(O)c1C=Nc1ccc(O)c(-c2nc3ccccc3o2)c1,1.8
Cc1nc(-c2cccc([N+](=O)[O-])c2)no1,-0.51
O=C1CCN(c2cc(Nc3ccc(C(=O)O)cc3)c3c4c(onc24)-c2ccccc2C3=O)CC1,0.5
C=CCNC(=O)c1ccc2c(c1)N(Cc1ccc(F)cc1)C(=O)CS2,0.41
CC(C(=O)Nc1ccc(CC#N)cc1)N(c1ccccc1)S(C)(=O)=O (centres undefined),0.63
O=C(NCCc1ccccc1Cl)c1ccc(Cn2c(=S)[nH]c3ccc(N4CCOCC4)cc3c2=O)cc1,-1
CCC1=Nc2cc(C(=O)NCc3ccc(OC)cc3)ccc2Sc2ccc(Cl)cc21,-1.3
Cc1cccc(-n2ccnc2SCC(=O)Nc2ccc(OC(F)(F)F)cc2)c1,-0.39
O=C(CCn1c(=S)oc2ccccc21)Nc1ccccc1F,0.44
CCN(C(=O)c1cc2c(=O)n3ccccc3nc2s1)c1ccccc1,-0.76
CCn1c(N)nc2c1c(=O)n(C)c(=O)n2C,1.3
CCN(C(C)=O)c1nnc(-c2ccncc2)s1,-0.38
CCSCCOC(=O)C1=C(C)NC2=C(C(=O)C(C(=O)OC)C(C)C2)C1c1cccc([N+](=O)[O-])c1 (centres undefined),-0.83
COc1cc(C2C3=C(CC(c4ccccc4)CC3=O)Nc3ccccc3N2C(=O)C2CC2)cc(OC)c1OC (centres undefined),1.3
COc1ccc(NC(=O)c2c(NC(=O)c3ccc(Br)cc3)sc3c2CCCC3)cc1,-0.3
CCOc1ccc(-n2nc(C(=O)N3CCCCC3)c3ccccc3c2=O)cc1,-0.45
CCCCN(C)S(=O)(=O)c1ccc(C(=O)Nc2ccc(-c3nc4ccccc4[nH]3)cc2)cc1,-0.15
COCCNC(=O)c1cn(CC(C)C)c(=O)c2c1c1ccccc1n2C,-0.47
CC(=O)C1=C(C)NC(=O)C(C#N)C1c1cccc([N+](=O)[O-])c1 (centres undefined),-0.13
Cc1ccc(S(=O)(=O)N2CCN(c3ccc([N+](=O)[O-])c(NC(C)C45CC6CC(CC(C6)C4)C5)c3)CC2)cc1 (centres undefined),-0.53
Cc1ccc(NC(=O)c2oc3ccc(S(=O)(=O)N(C)C4CCCCC4)cc3c2C)cc1C,-0.2
CCC1CCCCN1S(=O)(=O)c1cc(C(=O)Nc2ccc(C)c(F)c2)ccc1F (centres undefined),0.11
CCCn1c(NCCCO)nc2c1c(=O)[nH]c(=O)n2C,2
Cc1ccc2nsnc2c1S(=O)(=O)NCCOC12CC3CC(CC(C3)C1)C2,0.66
O=C(O)c1cccc(NC2=C(n3nnc4ccccc43)C(=O)c3ccccc3C2=O)c1,-0.95
O=C1C2C3C=CC(C3)C2C(=O)N1CCC(=O)N1c2ccccc2Sc2ccccc21 (centres undefined),1.2
C=CSc1cccc2ncccc12,0.4
C=CCn1c(SCc2ccccc2F)nc2sc3c(c2c1=O)CCC3,-1.5
COc1ccccc1-n1c(-c2cc(C)n(C)n2)n[nH]c1=S,1.2
O=C(NCCCN1CCCC1=O)C1CCC(Cn2c(=S)[nH]c3ccccc3c2=O)CC1 (centres undefined),-1.6
OCc1nc(CO)n(Cc2ccccc2)n1,0.26
O=c1c2ccccc2nc(C=Cc2ccccc2[N+](=O)[O-])n1-c1cccc(C(F)(F)F)c1,0.04
O=C(Nc1cc(OCC(F)(F)F)cc([N+](=O)[O-])c1)c1cc2ccccc2oc1=O,-1.3
COc1ccc(OC)c(C=Nc2oc(-c3ccccc3)c(-c3ccccc3)c2C#N)c1,-1
CC(C)(C)c1ccc2c(c1)N(CC(=O)NCc1ccco1)C(=O)CO2,-0.93
CCc1cccc(NC(=O)Cn2c(=O)n(CCc3cccc(C)c3)c(=O)c3ccccc32)c1,0.46

# Carrying on:
compound,Measles inh
Cc1ccccc1-c1nnc(NC(=O)Cc2ccccc2)s1,0.49
COc1cc(CNc2ccc3[nH]c(=O)[nH]c3c2)ccc1OCc1cccs1,-1.6
O=C(Cn1c(=S)[nH]c2ncccc2c1=O)NCCc1ccc(Cl)cc1,1.1
Cc1ccnc(NC(=O)Nc2ccc(F)cc2)c1,0.28
COC(=O)CSc1cccc2cccnc12,0.43
NS(=O)(=O)c1ccc(NC(=O)c2cccc(OCc3ccccc3)c2)cc1,0.12
CCOC(=O)c1ccc(NC(=O)c2ccccc2F)cc1,-0.79
O=C(NC1CC1)c1ccc2c(=O)n(-c3ccccc3)c(=O)[nH]c2c1,0.69
COc1ccc(C2CC(C(F)(F)F)n3ncc(C(=O)Nc4sc5c(c4C(=O)OC(C)C)CCCC5)c3N2)cc1OC (centres undefined),0.39
Cc1ccc(CCNc2ccccc2)c[n+]1[O-],-0.04
CCOC(=O)c1cnc2c(Cl)cccc2c1NCCN1CCOCC1,-0.79
O=C(Cn1ccc2ccccc2c1=O)NCCC(=O)N1CCN(c2ccccn2)CC1,-0.42
O=C(CCN1CCCC1)NCC1OCCc2ccccc21 (centres undefined),0.17
Cc1nc(SCC(=O)NCc2ccco2)c2c3c(sc2n1)CCCC3,-0.06
O=c1cc(O)sc2ccccc12,0.2
CN(C)S(=O)(=O)c1ccc(-c2nc3ccccc3s2)cc1,0.04
Cc1ccc(CCN2CC(C(=O)NC3CCCC3)CC2=O)cc1 (centres undefined),-0.44
Cc1ccc(Cl)cc1NS(=O)(=O)c1ccc2c(c1)c(=O)n(C)c(=O)n2C,-0.52
O=C(NCCN1CCOCC1)c1cc(S(=O)(=O)N2CCOCC2)ccc1Sc1ccc(Br)cc1,-0.58
COC(=O)CSc1nc(-c2cccs2)cc(C(F)(F)F)c1C#N,0.09
CC1(C)Cc2c(C#N)c(NCCCO)nc(-c3ccccc3)c2CO1,0.1
Cc1sc(NC(=O)c2ccccc2)nc1-c1ccc(-c2ccccc2)cc1,0.54
O=C1CN(C(=O)C2CC2)C(c2ccccc2)c2cc(Cl)ccc2N1 (centres undefined),-0.45
COc1ccccc1CNC(=O)CCCn1c(=O)[nH]c2ccsc2c1=O,-0.11
Cn1c(=O)n(C)c2cc([N+](=O)[O-])c(N3CCOCC3)cc21,-1.1
O=C(c1cc2n(n1)C(C(F)(F)F)CC(c1ccc(Cl)cc1)N2)N1CCN(c2ccc(F)cc2)CC1 (centres undefined),0.68
COc1ccc(NS(=O)(=O)c2ccc(NC(=O)c3cccc(I)c3)cc2)nn1,0.66
O=C(CSc1nc2ccc(N=Cc3ccc(Cl)cc3)cc2s1)N1CCOCC1,-0.68
Cc1ncc([N+](=O)[O-])n1Cc1ccc(F)cc1,-0.37
COc1ccc(-c2cc(C(=O)NC(C)c3ccccc3)c3ccccc3n2)cc1OC (centres undefined),0.23

# Carrying on.
Compound | Measles inh
COc1ccccc1C=CC1NC(=O)NC(C)=C1C(=O)OC(C)C (centres undefined) | 0.23
CCCCOc1ccc(C(=O)Nc2c3c(nn2-c2ccccc2C)CS(=O)C3)cc1 (centres undefined) | -1.1
NC(=O)c1c(NC(=O)c2noc3c2CCCCC3)sc2c1CCCC2 | -1.1
O=C(NCCN1CCOCC1)C1CCCN(S(=O)(=O)c2cccc3nsnc23)C1 (centres undefined) | -0.04
Cc1ccc(OCC(=O)Oc2ccc3c(c2)oc(=O)c2ccccc23)cc1 | 0.51
O=C(c1ccco1)N1CCN(Cc2ccccc2F)CC1 | -0.16
COC(=O)C1=C(C)NC(C)=C(C(=O)OC)C1c1ccc(-c2ccc(Cl)cc2)o1 | -1.5
O=C(c1ccc2nc3ccc(Cl)cc3c(=O)n2c1)N1CCN(C(=O)c2ccco2)CC1 | -0.8
CC1CC(C)CN(C(=O)Cn2c(=O)n(CCC(=O)NCc3ccc4c(c3)OCO4)c(=O)c3ccccc32)C1 (centres undefined) | -0.07
Cc1ccccc1OCC(=O)NS(=O)(=O)c1ccc(Cl)cc1 | 0.42
COc1ccccc1C(=O)N1CCC(N2CCN(c3ccccc3OC)CC2)CC1 | -0.81
COc1ccc(OCCNC(=O)c2sc3ccccc3c2Cl)cc1 | -0.17
CCN(CC)S(=O)(=O)c1cc(C(=O)NC2CCCCC2)ccc1C | -0.98
Cc1ccc2nc(-c3ccc(NC(=O)CC(C)C)cc3)sc2c1 | -0.6
O=C1C=C(c2ccc(Cl)cc2)C(=O)N1C1CCCCC1 | -1.2
CCOC(=O)C1CCN(C(C)C(=O)N2CCCc3c2c(=O)oc2ccc(O)cc32)CC1 (centres undefined) | -0.29
Cc1ccc(-c2csc(NC(=O)CCN3C(=O)c4ccccc4C3=O)n2)cc1 | 0.64
Cc1nc2cc(-c3ccc(C(C)(C)C)cc3)[nH]n2c(=O)c1Cc1ccccc1 | 0.12
COc1ccccc1NC(=O)Cc1c(C(=O)O)[nH]c2ccccc12 | -0.65
CCN(CC)CCn1c(=S)[nH]c2cc3c(cc2c1=O)OCO3 | -0.69
CC(NC(=O)C1CC1(C)C)c1ccccc1 (centres undefined) | -0.67
O=c1oc2cc(O)ccc2cc1-c1nnc(Nc2ccccc2F)s1 | 7.7
COc1ccc(CCN2C(=O)C3C4CC(=O)C(c5ccccc54)C3C2=O)cc1OC (centres undefined) | 0.5
CCOC(=O)c1nc(N)c(=O)n(-c2ccc(C(=O)O)cc2)n1 | 0.54

# Sorted by length of the SMILES (descending): some entries from above
Compound | Measles inh
CCOC(=O)C1CCN(C(C)C(=O)N2CCCc3c2c(=O)oc2ccc(O)cc32)CC1 (centres undefined) | -0.29
COc1ccccc1NC(=O)Cc1c(C(=O)O)[nH]c2ccccc12 | -0.65
Cc1ccc2nc(-c3ccc(NC(=O)CC(C)C)cc3)sc2c1 | -0.6

# Additional structures:
Compound | Measles inh
CCC(Sc1nc2ccccc2c(=O)n1CC1CCCO1)C(=O)N(CC)CC (centres undefined) | 0.18
CC(C)(C)C(=O)CSc1nc2ccccc2c(=O)n1CCN1CCOCC1 | 7.7
COc1ccc(-n2nc3c(c2NC(=O)C(C)C)CS(=O)(=O)C3)cc1 | -0.77
Cc1c(C(=O)N(C)CCC#N)oc2ccc(S(=O)(=O)N3CCCCCC3)cc12 | 0
Cc1ccc(NC(=O)C2C3C=CC4(O3)C2C(=O)N(CCc2ccc(Cl)cc2)C4C(=O)NC2CCCC(C)C2C)cc1C (centres undefined) | -0.62
COc1ccc(N2CCN(CCNS(=O)(=O)c3cccc4nsnc34)CC2)cc1 | -0.01
COc1cc(C2C(C(=O)OCC(C)C)=C(C)NC3=C2C(=O)CC(c2ccccc2)C3)ccc1OC(C)=O (centres undefined) | -0.96

# Some of the entries so far, field by field.
smiles: COc1ccc(N2CCN(CCNS(=O)(=O)c3cccc4nsnc34)CC2)cc1
  Measles inh: -0.01
smiles: CCC(Sc1nc2ccccc2c(=O)n1CC1CCCO1)C(=O)N(CC)CC (centres undefined)
  Measles inh: 0.18
smiles: COc1cc(C2C(C(=O)OCC(C)C)=C(C)NC3=C2C(=O)CC(c2ccccc2)C3)ccc1OC(C)=O (centres undefined)
  Measles inh: -0.96
